# High-throughput results: PubChem BioAssay, National Center for Advancing Translational Sciences (NCATS)
# VDR inhibitor: blocks the human vitamin D receptor. P11473. 400,000 tested, 0.93% active. Potency, µM, for inactives: max response, negative = inhibition, most hits filed as inhibitors. VDR-SRC2-3 peptide fluorescence polarization, 2 h; active means well fitted inhibition curve with a large enough effect; inconclusive means small, poorly fitted or top-dose-only effect, or another doubt; inactive means no such curve, though single readings can be large or run the other way; further: series mostly up to about 120 µM
# Target sequence (P11473 whole entry, looked up): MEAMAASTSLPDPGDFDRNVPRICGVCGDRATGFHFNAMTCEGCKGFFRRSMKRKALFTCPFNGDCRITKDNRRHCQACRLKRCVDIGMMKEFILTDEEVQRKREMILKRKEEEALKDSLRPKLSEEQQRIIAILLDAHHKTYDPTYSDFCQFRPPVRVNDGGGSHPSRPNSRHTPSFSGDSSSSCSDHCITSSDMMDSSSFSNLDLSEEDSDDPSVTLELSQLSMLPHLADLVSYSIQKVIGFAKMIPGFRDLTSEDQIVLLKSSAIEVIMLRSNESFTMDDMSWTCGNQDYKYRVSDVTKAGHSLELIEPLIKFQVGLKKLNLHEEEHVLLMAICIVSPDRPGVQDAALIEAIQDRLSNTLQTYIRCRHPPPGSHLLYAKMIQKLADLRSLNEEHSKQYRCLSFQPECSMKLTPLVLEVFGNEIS
#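 Compounds are added to VDR with labelled SRC2-3 coactivator peptide and held 2 h at room temperature. Inhibition of the VDR–peptide interaction is then read as a change in fluorescence polarization.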
# Active calls of the source: *; ? = inconclusive; & = joins results of further samples. On the % scale 0 is the no-effect control and ±100 the full control effect; potency means the concentration at half of the fitted maximal effect. The list is partial; count on the stated rates, not on these rows.
nr	VDR inhibitor	SMILES
1	0%	COc1ccc2[nH]c(C)c(C(=O)CN3CCc4cc(OC)c(OC)cc4C3)c2c1
2	19%	CN1CCN(C(=S)NC(=O)c2ccccc2Br)CC1
3	22%	O=C(Cc1ccccc1)NNC(=O)c1ccccc1C(=O)O
4	17%	O=C(C1CC(=O)N(c2ccccc2)C1)N1CCN(C2=NS(=O)(=O)c3ccccc32)CC1 (centres undefined)
5	-14%	O=C(/C=C/c1cccs1)N1CCC2(CC1)Oc1ccc(Cl)cc1C(=O)C21CC(c2ccc(Cl)cc2)=NO1 (centres undefined)
6	-14%	CCn1c2ccccc2c2cc(NC(=O)COC(=O)c3ccc(O)cc3)ccc21
7	?	Cc1ccc(CN2CCN(/N=C/c3cc(Br)cc(Br)c3O)CC2)cc1
8	2%	Cc1ccc(S(=O)(=O)Nc2c(NC3CCCCC3)c3ccccc3oc2=O)cc1
9	9%	CCN(CC)c1ccc(C(=O)N/N=C/c2ccccc2OC(F)F)cc1
10	4%	c1ccc(-n2ncc3c(NCc4cccs4)ncnc32)cc1
11	-8%	CCOc1cc(C2C(C(=O)OC)=C(C)N=C3SC(C)C(=O)N32)ccc1OC(C)=O (centres undefined)
12	-26%	Cc1ccc(NC(=O)CSCC(=O)N2CCN(c3cccc(C(F)(F)F)c3)CC2)cc1
13	14%	O=C(Nc1ccccc1Cl)Nn1cnnc1
14	-16%	CCOc1nc2ccccc2nc1NS(=O)(=O)c1ccccc1
15	0%	O=C(NCCCc1ccccc1)c1cc(COc2c(F)cccc2F)on1
16	15%	COC(=O)c1ccccc1NC(=O)CSc1nnnn1-c1ccc(C)cc1C
17	11%	CNC[C@H](CC1CCCCC1)NC[C@H](NCCC1CCCC1)[C@H](C)O
18	-9%	CCN1C(=N)N(c2ccccc2)C(=O)C(CC)(CC)C1=O
19	-14%	COc1ccccc1-c1c(C)oc2cc(OC(=O)c3ccco3)ccc2c1=O
20	-11%	COc1ccc(-n2c(=O)c(-c3cc(F)cc(F)c3)nc3cnc(N(C)C)nc32)cc1
21	?	N#Cc1c(N)[nH]c(=S)c(C#N)c1-c1ccccc1
22	-12%	COc1cccc(OCc2cc(C(=O)N3CCCC3c3ccccn3)no2)c1 (centres undefined)
23	10%	COCCn1c(=S)[nH]c2cc(C(=O)N3CCc4ccccc43)ccc2c1=O
24	3%	OCCn1nc(-c2ccccc2)cc1-c1ccccc1
25	-15%	CCOC(=O)CC(=O)NC1(Cc2ccc(O)cc2)CCCCC1
26	4%	C[C@]12c3[nH]c4cc(-c5ccco5)ccc4c3CCN1C(=O)[C@@H](CC(=O)NCCN1CCOCC1)C[C@@H]2C(=O)N1CCOCC1
27	4%	Cc1ccc(-c2nnc(SCC(=O)NC(C)(C)C)nc2-c2ccc(C)cc2)cc1
28	-2%	COc1ccc(CN(C(=O)Cc2coc3ccc(C)cc23)C2CCS(=O)(=O)C2)cc1 (centres undefined)
29	17%	CCOC(=O)C1=C(C)N(C[C@@H]2CC[C@@H](Cc3ccc(-c4ccccc4)cc3)O2)C(=O)NC1c1ccc(-c2ccccc2)cc1 (some centres undefined)
30	9%	c1ccc(N2CCN(CCc3nnc4n3CCCCC4)CC2)cc1
31	3.5µM*	O=C(Nc1cccc(Cl)c1)OCC#CCCl
32	-6%	O=C(N=C1c2ccccc2CN1c1cccc(Cl)c1)c1cccnc1
33	-27%	O=C(NCc1nc2ccccc2[nH]1)C1=C[C@H](C2CC2)C[C@H](OCc2ccc(CO)cc2)O1
34	-27%	C=C(C(=O)c1ccccc1)C(C(=C)C(=O)c1ccccc1)c1ccc(OC)cc1
35	5%	CCOC(=O)C1=C(O)C(=O)N(c2ccc(S(N)(=O)=O)cc2)C1c1ccc(Br)cc1 (centres undefined)
36	-7%	CCN1C(=O)[C@H]2[C@@H](c3ccc(C)cc3)N3C(=O)N(c4ccc(OC)cc4)C(=O)[C@@]3(Cc3ccccc3)[C@H]2C1=O
37	-5%	Cc1nc2c(=O)n(-c3ccc(F)cc3F)nc(C)c2s1
38	-3%	Cc1cccc(C(=O)Oc2ccccc2/C=N/NC(=O)c2ccc(NC(=O)C(C)(C)C)cc2)c1
39	9%	CCOCCCN(C)C1CCN(C(=O)c2oc3ccccc3c2NC(=O)c2ccc(F)cc2)CC1
40	0%	Cc1ccc(S(=O)(=O)c2nc(S(=O)(=O)c3ccc(C)cc3)c(NCCCOC(C)C)s2)cc1
41	3%	Cc1ccc(S(=O)(=O)N(C)CC(=O)Nc2cccnc2)cc1
42	6%	Cc1cccn2c(=O)c3cc(C(=O)NC4CCCC4)c(=N)n(C4CCCCC4)c3nc12
43	0%	COC(=O)C1=C(C(=O)OC)[C@@H]2N(Cc3ccccc3)c3ccccc3[C@@]23C[C@@H](C(=O)OC)N(C(=O)c2cc(C)oc2C)C3=N1
44	18%	CCOc1ccc(OCC)c(Nc2nc3ccc(C(=O)c4ccccc4)cc3n3cnnc23)c1
45	11%	C=CCN(C(=O)CCC(=O)Nc1cc(C)on1)C(C(=O)NC(C)(C)CC)c1cccc(OC)c1OC (centres undefined)

# 24 entries from above, bar-delimited.
no. | mol | VDR inhibitor
22 | COc1cccc(OCc2cc(C(=O)N3CCCC3c3ccccn3)no2)c1 (centres undefined) | -12%
23 | COCCn1c(=S)[nH]c2cc(C(=O)N3CCc4ccccc43)ccc2c1=O | 10%
24 | OCCn1nc(-c2ccccc2)cc1-c1ccccc1 | 3%
25 | CCOC(=O)CC(=O)NC1(Cc2ccc(O)cc2)CCCCC1 | -15%
26 | C[C@]12c3[nH]c4cc(-c5ccco5)ccc4c3CCN1C(=O)[C@@H](CC(=O)NCCN1CCOCC1)C[C@@H]2C(=O)N1CCOCC1 | 4%
27 | Cc1ccc(-c2nnc(SCC(=O)NC(C)(C)C)nc2-c2ccc(C)cc2)cc1 | 4%
28 | COc1ccc(CN(C(=O)Cc2coc3ccc(C)cc23)C2CCS(=O)(=O)C2)cc1 (centres undefined) | -2%
29 | CCOC(=O)C1=C(C)N(C[C@@H]2CC[C@@H](Cc3ccc(-c4ccccc4)cc3)O2)C(=O)NC1c1ccc(-c2ccccc2)cc1 (some centres undefined) | 17%
30 | c1ccc(N2CCN(CCc3nnc4n3CCCCC4)CC2)cc1 | 9%
31 | O=C(Nc1cccc(Cl)c1)OCC#CCCl | 3.5µM*
32 | O=C(N=C1c2ccccc2CN1c1cccc(Cl)c1)c1cccnc1 | -6%
33 | O=C(NCc1nc2ccccc2[nH]1)C1=C[C@H](C2CC2)C[C@H](OCc2ccc(CO)cc2)O1 | -27%
34 | C=C(C(=O)c1ccccc1)C(C(=C)C(=O)c1ccccc1)c1ccc(OC)cc1 | -27%
35 | CCOC(=O)C1=C(O)C(=O)N(c2ccc(S(N)(=O)=O)cc2)C1c1ccc(Br)cc1 (centres undefined) | 5%
36 | CCN1C(=O)[C@H]2[C@@H](c3ccc(C)cc3)N3C(=O)N(c4ccc(OC)cc4)C(=O)[C@@]3(Cc3ccccc3)[C@H]2C1=O | -7%
37 | Cc1nc2c(=O)n(-c3ccc(F)cc3F)nc(C)c2s1 | -5%
38 | Cc1cccc(C(=O)Oc2ccccc2/C=N/NC(=O)c2ccc(NC(=O)C(C)(C)C)cc2)c1 | -3%
39 | CCOCCCN(C)C1CCN(C(=O)c2oc3ccccc3c2NC(=O)c2ccc(F)cc2)CC1 | 9%
40 | Cc1ccc(S(=O)(=O)c2nc(S(=O)(=O)c3ccc(C)cc3)c(NCCCOC(C)C)s2)cc1 | 0%
41 | Cc1ccc(S(=O)(=O)N(C)CC(=O)Nc2cccnc2)cc1 | 3%
42 | Cc1cccn2c(=O)c3cc(C(=O)NC4CCCC4)c(=N)n(C4CCCCC4)c3nc12 | 6%
43 | COC(=O)C1=C(C(=O)OC)[C@@H]2N(Cc3ccccc3)c3ccccc3[C@@]23C[C@@H](C(=O)OC)N(C(=O)c2cc(C)oc2C)C3=N1 | 0%
44 | CCOc1ccc(OCC)c(Nc2nc3ccc(C(=O)c4ccccc4)cc3n3cnnc23)c1 | 18%
45 | C=CCN(C(=O)CCC(=O)Nc1cc(C)on1)C(C(=O)NC(C)(C)CC)c1cccc(OC)c1OC (centres undefined) | 11%

# Next section.
nr	VDR inhibitor	SMILES
46	21%	COc1ccc(C2(C(=O)Nc3ccc(OC)cc3OC)CCCC2)cc1
47	3%	Cc1ccc(-n2c(=O)c3ccc(C(=O)NCc4ccco4)cc3n(Cc3ccccc3Cl)c2=O)cc1
48	-15%	CCCCNC(=O)CC1NCCNC1=O (centres undefined)
49	?	CCc1ccccc1NC(=O)c1ccc2c(O)c(S(=O)(=O)c3ccc(OC)cc3)c(=O)[nH]c2c1
50	-3%	N#Cc1ccc(CSc2nnc(-c3cnccn3)o2)cc1
51	4%	CCN(CC(=O)NCc1cccnc1)S(=O)(=O)c1ccc(OC)cc1
52	-1%	CCc1ccc(N2CC(C(=O)OCC(=O)c3c(N)n(CC(C)C)c(=O)n(C)c3=O)CC2=O)cc1 (centres undefined)
53	8%	CCOC(=O)C(=CNc1ccc2c(c1)nnn2-c1ccc(Cl)cc1)C(=O)OCC
54	3%	O=C(NCc1ccccc1)c1ccc2c(c1)CCN2S(=O)(=O)c1ccccc1
55	89µM*	COC(=S)N/C(=N\S(=O)(=O)c1ccc(Cl)cc1)c1ccccc1
56	-10%	CCOC(=O)c1cccc(NC(=O)C2=C(C)C(=O)OC23CCCCC3)c1
57	9%&4%	Cc1ccc(S(=O)(=O)c2nc(-c3ccco3)oc2SC(C)C)cc1
58	-22%	COc1ccc(NC(=O)C/C(C)=N/NC(=O)C2CCCCC2)c([N+](=O)[O-])c1
59	0%	Cc1ccc2nc(N3CCN(Cc4nnnn4C4CCCC4)CC3)c(C#N)cc2c1
60	-7%	COc1ccccc1-c1noc(CCCC(=O)N2CCOCC2)n1
61	-17%	CCOC(=O)c1cc2nc(-c3ccccc3)cc(C)n2n1
62	12%	COC(=O)[C@@H](C)NC(=O)c1ccc2oc(CCc3ccccc3)nc2c1
63	-5%	CCN(c1cc(C)cc(C)c1)S(=O)(=O)c1nnc(NC(=O)c2ccccc2C)s1
64	5%	O=C(c1ccc(Cl)c(S(=O)(=O)N2CCCC2)c1)N1CCOCC1
65	1%	Cn1ccnc1C(=O)c1cccc(Br)c1
66	?	NNC(=O)CN1C(=O)Nc2ccc(Br)cc2C1c1ccccc1 (centres undefined)
67	6%	CCOc1ccc(S(=O)(=O)Nc2ccc3oc(C)c(C(=O)OC(C)C)c3c2)cc1
68	4%	O=C(CSc1ccc(-c2ccc(Cl)cc2)nn1)NC1CCCC1
69	-4%	CCCc1nc(NCCO)c(C#N)c2c1CCCC2
70	8%	COC(=O)c1ccc(N2CCOCC2)c(NC(=O)c2cc3ccccc3o2)c1
71	-16%	CC(C)c1nnc(NC(=O)CC23CC4CC(CC(C4)C2)C3)s1
72	21%	CCC1C(c2ccccc2)N(C)C(c2ccccc2)CC1(O)c1ccccc1 (centres undefined)
73	-5%	Cc1[nH]c(C)c(S(=O)(=O)Nc2ccccc2Cl)c1C(=O)N1CCCC1
74	21%	Cc1cc(C)c2oc(-c3cccc(NC(=O)c4cc5ccccc5o4)c3)nc2c1
75	-5%	CN(C)c1ccc(N=Cc2nc(-c3ccccc3)oc2O)cc1
76	-27%	Cc1cc(C(=O)Nc2ccc3nc(C)sc3c2)c2ccccc2n1
77	7%	Nc1ncnc2c1ncn2CCOCP(=O)(O)O
78	-10%	CCN1C(=O)[C@H]2[C@@H](c3ccc(Cl)cc3)N3C(=O)CN(CC4CC4)C(=O)[C@@]3(Cc3ccccc3)[C@H]2C1=O
79	-12%	CCc1ccc(CNC(=O)c2ccc3c(c2)nc2n3CCCCC2)cc1
80	25%	Cc1ccc(NC(=O)c2cc3c(=O)[nH]c4ccccc4c3n2C)cc1F
81	3%	Cc1cccc(NC(=O)CSc2ncnc3nc[nH]c23)c1C
82	-2%	COc1cc2c(c(OC)c1OC)-c1ccc(NC(=O)c3ccccc3)c(=O)cc1[C@@H](NC(C)=O)CC2
83	-4%	COC(=O)c1ccccc1NC(=O)N1CCCC1
84	-2%	S=C(c1ccc(-c2ccccc2Cl)o1)N1CCCCC1
85	-14%	Cc1cc(C)c2[nH]c(=O)c(CN(Cc3ccco3)C(=S)NCC3CCCO3)cc2c1 (centres undefined)
86	-14%	COC(=O)c1ccc(OCCOCCOc2cccc3ccc(C)nc23)cc1
87	8%	Cc1nn(Cc2ccccc2Cl)c(C)c1NC(=O)c1noc2c1CCCCC2
88	2%	COCCCN1C(=O)C(O)=C(C(=O)c2ccco2)C1c1ccccc1 (centres undefined)
89	19%	Cc1ccc(C)c(NC(=O)CCc2nnc3ccc(N4CCCCC4)nn23)c1
90	-16%	O=C(Cc1cccs1)NCc1cc(Cl)cc(Cl)c1

# Molecules listed so far with a tert-butyl group (2):
nr	VDR inhibitor	SMILES
27	4%	Cc1ccc(-c2nnc(SCC(=O)NC(C)(C)C)nc2-c2ccc(C)cc2)cc1
38	-3%	Cc1cccc(C(=O)Oc2ccccc2/C=N/NC(=O)c2ccc(NC(=O)C(C)(C)C)cc2)c1

# Additional records follow.
nr	VDR inhibitor	SMILES
91	9%	CC(=O)Nn1cc2c(=O)n(C)c(=O)n(C)c2c1
92	-2%	CCC(C(=O)Nc1cc(C)ccc1OC)n1nnc(C(=O)OC)c1C(=O)OC (centres undefined)
93	8%	CCCc1cnc(N2CCN(S(=O)(=O)c3cccs3)CC2)nc1
94	-1%	Nc1nonc1C(=Nc1ccc(Br)cc1)NO
95	-2%	CC1CC2(CCCCC2)Nc2c1ccc1ccccc21 (centres undefined)
96	-7%	CSCCC(NS(=O)(=O)c1cccc(C(F)(F)F)c1)C(=O)N1CCN(C(=O)c2ccco2)CC1 (centres undefined)
97	1%	COc1ccc(CNC(=O)c2ccc(-c3nc(CSc4ccc(C)cc4)c(C)o3)cc2)cc1OC
98	-19%	COc1ccc2cc(N3CCCC3=O)ccc2c1
99	1%	CCOC(=O)C(Cc1ccccc1)NC(=O)CCc1c(C)nc2ncnn2c1C (centres undefined)
100	26%	O=C(NNC(=S)Nc1ccc(Cl)cc1)c1ccccc1
